TDP1 block: inhibitors of human tyrosyl-DNA phosphodiesterase TDP1 | Q9NUW8 | recombinant TDP1, AlphaScreen DNA substrate cleavage | Potency, µM (highest dose often 130 µM), for inactives: at the top dose activity change, negative = inhibition, most hits filed as inhibitors | hit rate 0.28% among 350,000 | AID 485290; also: nearly all actives have a fitted effect of over 40% in size
Target sequence (Q9NUW8 whole entry, looked up): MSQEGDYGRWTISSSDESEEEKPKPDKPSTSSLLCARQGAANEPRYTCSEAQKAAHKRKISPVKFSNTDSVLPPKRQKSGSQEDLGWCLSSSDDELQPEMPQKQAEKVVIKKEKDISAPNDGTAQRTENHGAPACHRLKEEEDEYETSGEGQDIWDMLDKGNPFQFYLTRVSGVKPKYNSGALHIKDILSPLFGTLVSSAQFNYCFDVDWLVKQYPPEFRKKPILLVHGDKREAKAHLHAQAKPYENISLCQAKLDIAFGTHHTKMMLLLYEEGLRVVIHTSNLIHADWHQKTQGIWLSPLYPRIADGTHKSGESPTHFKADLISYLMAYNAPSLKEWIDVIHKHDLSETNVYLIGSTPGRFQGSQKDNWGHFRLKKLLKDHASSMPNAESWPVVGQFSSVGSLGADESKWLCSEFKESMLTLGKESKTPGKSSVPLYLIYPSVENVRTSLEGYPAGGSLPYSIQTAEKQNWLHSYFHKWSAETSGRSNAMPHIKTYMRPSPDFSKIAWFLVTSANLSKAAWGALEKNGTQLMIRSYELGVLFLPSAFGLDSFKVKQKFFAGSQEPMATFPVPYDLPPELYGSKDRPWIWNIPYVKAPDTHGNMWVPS
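Signal: AlphaScreen proximity between streptavidin donor and anti-FITC acceptor beads on intact substrate. Reaction: Tdp1 1 nM, substrate 15 nM final, 5 min RT after 15 min compound preincubation.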
N370S GC mod: N370S glucocerebrosidase modulation, Gaucher chaperone candidate. P04062. N370S GC spleen homogenate, 4MU-glucoside fluorescence. Potency, µM (titrated, usually from 59.4 µM), inactives show at the top dose activity change, negative = inhibition, most hits filed as inhibitors. hit rate 0.092% among 330,000. AID 2101;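 also: 0% = full enzyme activity and -100% = no enzyme basal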
* = called active by the depositor; ? = inconclusive; . = no result given; & = joins results of further samples; [ ] = remark or other dose. Calls follow the shape of the dose curve; as a rule, active = well fitted curve in the direction sought with a large enough effect; inconclusive = small, poorly fitted or top-dose-only effect, or another doubt; inactive = no such curve, though single readings can be large; an effect the other way counts as inactive or inconclusive. Unless noted, % is scaled to controls: 0 for no effect and ±100 for the full control effect; potency is read from the fitted curve at half-maximal effect.

The line under a structure holds: TDP1 block, N370S GC mod
> Cc1ccnc(NS(=O)(=O)c2ccc(NC(=O)c3ccc(S(=O)(=O)N4CCOCC4)cc3)cc2)n1
→ 0.0%, 2.4%
> COc1ccc(Cl)cc1NC(=O)CN1CCCCCC1
→ -1.3%, -15.1%
> O=C(NCCc1cccs1)C1CC(c2c(Cl)cccc2Cl)=NO1 (stereo unspecified)
→ -2.0%, 7.6%[12.8 µM]
> CCNC(=O)N1CCCC(C(=O)c2ccc(-c3ccccc3)cc2)C1 (stereo unspecified)
→ ., -11.5%
> CC(=O)N1CC(C)Sc2ccc(S(=O)(=O)NCCc3ccc(C)cc3)cc21 (stereo unspecified)
→ -1.3%, ?
> Cn1c(=O)c2c(nc(CN3CCN(C(=O)c4ccco4)CC3)n2Cc2ccccc2F)n(C)c1=O
→ -1.3%, -3.8%
> Cc1cccc(OC(C)C(=O)Nc2nc(-c3ccncc3)cs2)c1 (stereo unspecified)
→ 2.1%, -3.7%
> C=CCn1c(SCC(=O)O)nc2sc(CC)cc2c1=O
→ 6.0%, -12.3%
> O=[N+]([O-])c1cnc(Nc2ccc(Cl)cn2)c([N+](=O)[O-])c1
→ ., -6.6%
> O=C(Cn1nnc(-c2ccncc2)n1)Nc1ccc2c(c1)CCC2
→ 0.0%, -3.3%
> CCc1nn(CC(=O)N2CCN(c3cc(C)ccc3C)CC2)c(=O)c2cc3occc3n12
→ 4.0%&-5.1%, -16.1%
> COc1ccccc1NC(=O)CSc1nnc(-c2ccccc2)o1
→ 1.0%, 17.9%
> COc1ccc(Cc2nnc(Nc3ccccc3OC)[nH]c2=O)cc1
→ 5.4%, -1.1%
> Cc1ccsc1C(=O)OCC(=O)NCc1ccc2c(c1)OCO2
→ 1.0%, 7.5%
> O=C(CCN1C(=O)c2cccc3cccc(c23)C1=O)Nc1ccon1
→ 3.0%, 4.7%
> COCCCn1c(=O)/c(=C\c2ccc(OC(F)F)c(OC)c2)s/c1=C(/C#N)C(=O)NCCOC
→ 0.0%, -1.7%
> CC1(C)CC(=O)C(C=Nc2ccc(N)cc2)=C(O)C1
→ 3.8%, -6.5%
> O=C(NCc1csc(-c2cccs2)n1)c1ccccc1
→ 5.7%, 4.9%
> COc1cccc(C(=O)N(Cc2ccco2)Cc2cc3cccc(C)c3[nH]c2=O)c1
→ 0.0%, 6.3%
> CCS(=O)(=O)N1CCC(C(=O)Nc2ccc(C(C)=O)cc2)CC1
→ ., -3.2%
> O=C(NN1C(=O)C2C3C=CC(O3)C2C1=O)c1ccncc1 (stereo unspecified)
→ 2.6%, -8.9%
> CC1(c2ccccc2Cl)NC(=O)N(CC(=O)N2CCc3ccccc3C2)C1=O (stereo unspecified)
→ -0.7%, 1.8%
> CCn1c(=O)cc(OCC(=O)N2CCCCCC2)c2ccccc21
→ 8.8%, -0.4%
> CN(Cc1cccnc1)C(=O)c1cc(COc2ccc3c(c2)CCCC3)on1
→ 2.4%[56.1 µM], -23.1%
> CN(C)C(CNc1ccc(S(C)(=O)=O)cc1[N+](=O)[O-])c1ccccc1 (stereo unspecified)
→ 8.8%, -4.6%
> Cc1ccc(C(=O)NCC(C)(C)O)cc1
→ 4.9%, 6.8%
> COc1cc(OC)cc(C(=O)OCC(=O)N(C)c2ccccc2)c1
→ 3.1%, -12.3%
> COc1ccccc1N(CC(=O)Nc1cccnc1)S(=O)(=O)c1ccccc1
→ 11.2%, -3.3%
> CC(C)Cc1nc(SCC(=O)NCc2ccccc2)n[nH]1
→ -9.1%, 6.9%
> CCc1noc(C)c1C(=O)N1CCN(S(=O)(=O)c2cc(C)ccc2C)CC1
→ 5.3%[56.1 µM], -7.9%

The closing five entries of the section above lead into the next:
The line under a structure holds: TDP1 block, N370S GC mod
> Cc1ccc(C(=O)NCC(C)(C)O)cc1
→ 4.9%, 6.8%
> COc1cc(OC)cc(C(=O)OCC(=O)N(C)c2ccccc2)c1
→ 3.1%, -12.3%
> COc1ccccc1N(CC(=O)Nc1cccnc1)S(=O)(=O)c1ccccc1
→ 11.2%, -3.3%
> CC(C)Cc1nc(SCC(=O)NCc2ccccc2)n[nH]1
→ -9.1%, 6.9%
> CCc1noc(C)c1C(=O)N1CCN(S(=O)(=O)c2cc(C)ccc2C)CC1
→ 5.3%[56.1 µM], -7.9%
> O=C(CSc1ccc2nnc(-c3ccccn3)n2n1)NCc1ccco1
→ -2.6%, 2.0%
> CCc1cc2c(=O)n(-c3ccccc3)cnc2s1
→ -1.1%, 22.9%
> CCN(Cc1ccncc1)C(=O)c1cccs1
→ 5.1%, -4.7%
> Cc1cccc2nc(CSc3nnc4ccccn34)cn12
→ 3.1%, 7.1%
> O=c1cc(N2CCc3ccccc32)[nH]c(=O)n1-c1ccc(Cl)cc1
→ -2.3%, -2.0%
> COc1ccc(C(=O)NC(=S)N2CCCC2)cc1
→ 3.1%, -5.2%
> CN(Cc1ccccc1)C(=O)c1ccc(NC(=O)Cc2cccc(NC(=O)C3CCN(C(=O)C4CCCC4)CC3)c2)cc1
→ 5.2%, .
> CC1CC(C)CN(S(=O)(=O)c2ccc3c(c2)CC(C)N3C(=O)C2CC2)C1 (stereo unspecified)
→ 0.8%, 0.5%
> COc1ccc(NC(=O)CN(C)CC(=O)Nc2cccc(C(F)(F)F)c2)cc1
→ 5.9%, -4.6%
> CC(=O)N1c2ccc(S(=O)(=O)N3CCC(C(=O)N4CCCCC4)CC3)cc2CC1C (stereo unspecified)
→ 3.1%, -1.8%
> CCN(CC)CC(=O)Nc1ccc(-c2ccc(NC(=O)CN(CC)CC)c(OC)c2)cc1OC
→ 0.0%, -7.7%
> CCN(CC)C1=CC(=O)OC12CCCCC2
→ -10.2%, 11.8%
> CC(C)OC(=O)CCC1(C(=O)O)CCC(=O)NC1 (stereo unspecified)
→ 2.9%, 5.6%
> CC(C)(C)OC(=O)N1CCOCCOCCNCCOCCOCC1
→ -3.3%, 6.4%
> Nc1cccc(-c2nc3cc(S(=O)(=O)c4ccc5oc(-c6cccc(N)c6)nc5c4)ccc3o2)c1
→ 4.8%, 4.9%
> Cc1nn(-c2ccccc2)c(C)c1S(=O)(=O)O
→ 25.1µM*, 0.5%
> COc1ccc(/C=C/C2=CC(C)(C)NC(=S)N2)cc1OC
→ 8.1%, 1.2%
> Cc1cc(C)nc(SCC(=O)NNC(=O)c2cccs2)n1
→ 0.0%, -9.9%
> C=CCC(=O)N1CCC(n2nccc2NC(=O)CCOc2ccccc2)CC1
→ 1.5%, 3.2%
> CCc1ccccc1-n1ncc(C(=O)Nc2ccccc2OC)c1C
→ ., -4.9%
> O=C(CN1C(=O)S/C(=C/c2cccn2-c2ccc(O)cc2)C1=O)N1CCCC1
→ 4.9%[0.0935 µM], -14.4%
> CCOC(=O)C1=C(C)NC(=S)NC1/C=C/c1ccccc1 (stereo unspecified)
→ 1.4%, 10.5%
> C=CCN1C(=O)c2ccccc2Sc2ccc(C(=O)NCCC)cc21
→ ., -3.1%
> COc1ccc(Nc2ncnc3c2cnn3Cc2ccc(C)cc2)cc1
→ 4.7%, 4.4%
> COc1ccc(C(=O)Nc2nonc2-c2ccc(OC)c(OC)c2)cc1Cl
→ 0.0%, .
> COc1ccc(N2CCN(C(=O)CCCN3C(=O)c4cccc5cccc(c45)C3=O)CC2)cc1
→ 9.6%, 5.4%
> CNC(=S)N/N=C/c1c2ccccc2c(Cl)c2ccccc12
→ 10.6%, -1.4%
> COc1ccc(CCNC(=O)C2CCCN(S(=O)(=O)N3CCCCCC3)C2)cc1OC (stereo unspecified)
→ 6.8%, -0.6%
> CCN1C(=O)[C@H]2[C@@H](c3ccc(C)cc3)N3C(=O)N(c4cccc(C)c4)C(=O)[C@@]3(Cc3ccccc3)[C@H]2C1=O
→ ., -14.3%
> COc1ccc(S(=O)(=O)N2c3ccccc3OCC2CC(=O)O)cc1 (stereo unspecified)
→ ., -11.5%
> Cc1ccsc1/C=C/C1=Cc2c(sc(NC(=O)CSc3n[nH]c(N)n3)c2C#N)C(C)(C)C1
→ 5.1%, -1.9%
> CCSc1nnc(Cn2c(=O)sc3ccccc32)n1-c1ccccc1C
→ 2.6%, 3.8%
> COC(=O)CNC(=O)CNC(=O)c1nn(-c2ccc(OC)c(Cl)c2)c(=O)c2ccccc12
→ 0.0%, -3.0%
> Cc1ccccc1CN1CCCC(C(=O)N2CCCCC2)C1 (stereo unspecified)
→ ., -6.7%
> COc1ccc(NS(=O)(=O)c2ccc(N3CCOCC3)c(NC(=O)C(C)C)c2)cc1
→ 5.3%, -1.1%
> CC[C@]12c3[nH]c4ccc(OC)cc4c3CCN1C(=O)C(CC(=O)NCc1ccco1)C[C@@H]2C(=O)N1CCN(C(=O)C2CC2)CC1 (stereo partly specified)
→ -0.1%[56.1 µM], .
> CCC(c1nnnn1C(C)(C)CC)N(CCCO)Cc1cc2cc(C)cc(C)c2[nH]c1=O (stereo unspecified)
→ 1.1%, 6.5%
> CCCC(=O)Nc1nnc(-c2ccccc2)o1
→ ., 9.9%
> Cc1cccc(CC(=O)NC2CCCCCC2)c1
→ ., -2.1%
> N/C(=N\OC(=O)c1cccc2ccccc12)c1ccc(Br)cc1
→ 8.2%, 5.3%
> Cc1ccc(S(=O)(=O)Nc2cccc3c2CCCC3)cc1
→ -2.8%, 0.7%
> COc1ccc(CCN2C(=O)C3C(C2=O)C2C=CC3C23CC3)cc1OC (stereo unspecified)
→ 8.0%, -5.9%
> Cc1ccc(-c2ccccc2)n1-c1cccc(C(=O)O)c1
→ 7.1%, 2.5%
> CCN1/C(=C/C(C)=O)Sc2ccc(OC)cc21
→ 2.4%, ?
> CC(Sc1ccccc1)C(=O)Nc1ccc(S(=O)(=O)N2CCOCC2)cc1 (stereo unspecified)
→ -1.1%, -4.5%
> C=CCNc1nc(Nc2cc(Cl)ccc2OC)nc(OC)n1
→ ., 3.6%
> COc1cccc(-c2nnc(SCC(=O)OC(C)C)n2N)c1
→ 2.1%, 8.7%
> CN(N)c1nc(-c2ccccc2)nnc1C(F)(F)F
→ 3.1%, 11.9%
> CCCCOc1ccc(CNC(=O)c2ccc3c(c2)N(C)C(=O)C2CCCCN32)cc1 (stereo unspecified)
→ 6.5%, .
> O=C(O)CCC(=O)Nc1ccc(C(=O)OCC(=O)c2ccc(Cl)cc2Cl)cc1
→ 9.0%, -15.4%
> O=C(Nc1cc(Cl)cc(Cl)c1)C1CCCC1
→ 0.1%, 14.5%
> CCS(=O)(=O)Nc1ccc(C2=NN(S(=O)(=O)c3ccc(F)cc3)C(c3ccco3)C2)cc1 (stereo unspecified)
→ 3.5%, 13.5%
> CC1=Nc2ccccc2N=C(NC(=O)/C=C/C(=O)O)C1c1ccccc1 (stereo unspecified)
→ ., 5.6%
> Cc1nn(C)c(N)c1-c1ccccc1
→ 0.0%, -13.4%
> Cc1ccc(-n2nc3c(=O)n(CCCC(=O)NCc4ccccc4C)nc(C)c3c2C)cc1
→ 0.2%&-2.8%, ?
> Cc1nnc(SCc2ccon2)n1-c1ccccc1
→ -5.2%, -1.5%
> CC(=O)c1c(C)[nH]c(C(=O)Nc2ccccc2Cl)c1C
→ -3.6%, 8.2%
> C=CCC(Nc1ccccc1)c1cccc(OC)c1OC (stereo unspecified)
→ -1.4%, -5.0%
> Cn1c(=O)c2[nH]c(COc3ccc(C(C)(C)C)cc3)nc2n(C)c1=O
→ 0.0%, 8.8%
> Cc1ccc(C(=O)NC2CCCCCC2)o1
→ 8.7%, 5.4%

The list goes on:
The line under a structure holds: TDP1 block, N370S GC mod
> COCCCN(C(=O)Cc1ccc(Cl)c(Cl)c1)c1c(N)n(Cc2ccccc2)c(=O)[nH]c1=O
→ -1.9%, -16.7%
> O=C(O)c1ccc(/C=N/NC(=O)c2ccc3c(c2)OCCO3)cc1
→ 5.4%, ?
> Cc1nc2c(C)cccc2c2c1CCN2c1ccccc1F
→ ., -6.6%
> Cc1cccc(OCc2nnc(SCc3cc(=O)n4cc(Br)ccc4n3)o2)c1
→ 0.0%, 6.5%[2.35 µM]
> O=C(O)c1cc2cc(Cl)ccc2[nH]1
→ 4.3%&4.5%, -2.6%&11.7%
> CC(C)(C)NS(=O)(=O)c1ccc(/C=C/C(=O)O)cc1
→ 1.2%, 5.1%
> O=[N+]([O-])c1ccc(CCNc2cccc3ccccc23)c([N+](=O)[O-])c1
→ 0.6%, -1.1%
> O=C(CSc1nc2[nH]ncc2c(=O)n1-c1ccccc1Br)NCc1ccco1
→ 12.0%, 0.5%
> CCCn1c(C)cc(C(=O)COC(=O)c2ccc(Cl)c(S(=O)(=O)N3CCCC3)c2)c1C
→ 6.2%, -2.6%
> C=CCN1CC(=O)N2C(C)c3[nH]c4ccccc4c3C[C@H]2C1=O (stereo partly specified)
→ ., -12.2%
> COc1ccc(/C=C2/SC(c3ccc(C)cc3)=NC2=O)cc1OC
→ -1.0%, 0.7%
> CN1C(=O)NC(c2ccc(O)cc2)C2=C1CN(c1cccc3ccccc13)C2=O (stereo unspecified)
→ 6.0%, 0.5%
> Cc1ccc(C)c(N2CCN(C(=O)C3CCN(S(=O)(=O)c4c(C)noc4C)CC3)CC2)c1
→ ., -2.8%
> O=C(NCCN1C(=O)S/C(=C\c2ccccc2)C1=O)C1CCN(S(=O)(=O)c2cccs2)CC1
→ 4.5%, -5.3%
> NS(=O)(=O)c1ccc(CCNC(=O)CNC(=O)COc2ccccc2)cc1
→ ., 1.0%
> O=C(N/N=C/c1cc(Br)ccc1O)c1ccccc1Cl
→ 2.5%, -0.2%
> Cc1noc(C)c1S(=O)(=O)N1CCCC(C(=O)NCCc2ccccc2)C1 (stereo unspecified)
→ 4.0%, -6.5%
> Cc1ccc(C(=O)OC2=CC(=O)CC(C)(C)C2)cc1
→ 2.8%, 11.8%

Compound activity as filed in PubChem.

Some of the compounds tested; most or all hits stand in other tables.
